Cruzain Triton: blocks cruzain activity in presence of Triton detergent. P25779. purified cruzain, Z-FR-AMC fluorescence, 0.01% Triton. Potency, µM, for inactives: max response, negative = inhibition, actives largely listed as inhibitors. hit rate 0.43% among 200,000. AID 1478; active = well fitted curve in the direction sought with a large enough effect; inconclusive = small, poorly fitted or top-dose-only effect, or another doubt; inactive = no such curve, though single readings can be large; an effect the other way counts as inactive or inconclusive;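 note: plate controls were neutral wells for no effect and buffer without enzyme for full effect; nearly all actives have a fitted effect of over 40% in size; top concentration of the series not given in the record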
Target sequence (P25779 123-467 limits assumed): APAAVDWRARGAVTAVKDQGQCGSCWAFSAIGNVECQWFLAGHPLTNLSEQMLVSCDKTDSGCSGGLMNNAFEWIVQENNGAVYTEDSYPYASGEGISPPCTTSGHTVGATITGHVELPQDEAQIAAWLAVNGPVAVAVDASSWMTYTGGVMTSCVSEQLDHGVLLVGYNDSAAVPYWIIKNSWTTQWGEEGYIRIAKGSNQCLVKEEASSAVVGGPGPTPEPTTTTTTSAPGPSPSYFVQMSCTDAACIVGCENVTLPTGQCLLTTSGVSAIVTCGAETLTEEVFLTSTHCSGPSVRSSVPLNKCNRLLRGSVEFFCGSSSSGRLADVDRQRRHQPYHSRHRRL
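In this qHTS format, compounds are incubated with 1.5 nM cruzain for 15 min at room temperature before 2 uM Z-FR-AMC is added. Release of AMC is followed at 360/450 nm, and progress is taken as the 60 s fluorescence difference.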
RE007 growth inh: less growth of the S. pombe RE007 Vpr strain. S. pombe RE007 Vpr strain, BacTiter-Glo ATP luminescence, 24 h; control for the full effect not named in the record. Potency, µM (top dose mostly 92.2 µM), without a hit: at the top dose activity change, negative = less growth. hit rate 0.21% among 360,000. AID 651644; active = well fitted falling curve with a large enough effect; inconclusive = small, poorly fitted or top-dose-only effect; inactive = no such curve, though single readings can be large or run the other way;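 note: % is set by controls: 0 for no effect and ±100 for the full control effect; nearly all actives have a fitted effect of over 50% in size; the assay follows cell death caused by Vpr and the record does not say whether a fall means rescue or toxicity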
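Fission yeast RE007 carrying one integrated HIV-1 vpr copy, seeded at OD 0.01 in PMG+AL medium with 23 nL pinned compound. Grown 24 h at 30 degrees; viability read by BacTiter-Glo luminescence after 5 min.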
LASV entry inh: blocks Lassa virus binding to or entry into cells; hit rate 1.2% among 300,000; Potency, µM (series often up to 37.9 µM), for the others: top-dose activity change, negative = inhibition, hits mostly inhibitors; Lassa virus pseudotype entry inhibition, cell reporter; control for the full effect not named in the record; active means well fitted inhibition curve with a large enough effect; inconclusive means small, poorly fitted or top-dose-only effect, or effect the other way; inactive means flat fitted curve, though single readings scatter; tested in HEK293 cells; note: % is set by controls: 0 for no effect and ±100 for the full control effect; nearly all actives have a fitted effect of over 50% in size; luciferase read-out
Marburg entry inh: Marburg virus entry inhibition | hit rate 1.8% among 300,000 | AID 540276 | Potency, µM (doses to about 37.8 µM), for the others: at the highest dose activity change, negative = inhibition, actives largely listed as inhibitors | Marburg virus pseudotyped entry inhibition, cell reporter; control for the full effect not named in the record; about a third of the inactives were read at about 46 µM; active = well fitted inhibition curve with a large enough effect; inconclusive = small, poorly fitted or top-dose-only effect, or effect the other way; inactive = flat fitted curve, though single readings scatter; tested in HEK293 cells; about a fifth of its hits are not listed in these tables; note: % is set by controls: 0 for no effect and ±100 for the full control effect; luciferase read-out
2A StopGo: FMDV 2A StopGo reporter, luciferase signal | human cells with a luciferase reporter of 2A StopGo recoding; control for the full effect not named in the record | Potency, µM (titrated, usually from 57.9 µM), inactives show top-dose signal change, negative = less light | hit rate 1.2% among 410,000; active = well fitted falling curve with a large enough effect; inconclusive = small, poorly fitted or top-dose-only effect; inactive = no such curve, though single readings can be large or run the other way; tested in HEK293T cells; note: % is set by controls: 0 for no effect and ±100 for the full control effect; nearly all actives have a fitted effect of over 45% in size; luciferase light after 4 h
NS1 function inh: inhibitors of influenza NS1 protein function; S. cerevisiae slowed by influenza A NS1, growth recovery by OD600; hit rate 0.4% among 270,000; Potency, µM (doses to about 46.1 µM), for inactives: at the highest dose activity, positive = more growth; note: actives are rising curves; nearly all actives have a fitted effect of over 50% in size
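Growth recovery, yeast-based: influenza A NS1 expressed in S. cerevisiae causes slow growth, and suppressors are detected by OD600. The parent strain without NS1 is used as positive control.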
Cruzain noTriton: cruzain (T. cruzi) inhibition without detergent | purified cruzain, Z-FR-AMC fluorescence, no detergent | Potency, µM, for inactives: max response, negative = inhibition, most hits filed as inhibitors | hit rate 2.3% among 200,000 | AID 1476; active = well fitted curve in the direction sought with a large enough effect; inconclusive = small, poorly fitted or top-dose-only effect, or another doubt; inactive = no such curve, though single readings can be large; an effect the other way counts as inactive or inconclusive;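 note: plate controls were enzyme without inhibitor for no effect and buffer without enzyme for full effect; nearly all actives have a fitted effect of over 40% in size; top concentration of the series not given in the record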
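Detergent-free condition (0.00005% Triton X-100) in acetate buffer pH 5.5 with DTT. 1.5 nM enzyme and compound were pre-mixed 15 min, then 2 uM Z-FR-AMC substrate added; reaction progress from fluorescence change between first and third reads (60 s).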
SARS PLP yeast: inhibitors of SARS-CoV papain-like protease in yeast; S. cerevisiae expressing SARS-CoV PLpro, growth rescue; control for the full effect not named in the record; Potency, µM (titrated, usually from 32.9 µM), inactives show at the highest dose activity, positive = growth rescue; hit rate 0.19% among 330,000; note: 0% is about no effect; nearly all actives have a fitted effect of over 55% in size; growth read by luminescence after 48 h
An asterisk follows results filed as active; u = inconclusive; x = no result given; & = joins results of further samples; [ ] = dose if it differs, or a comment. Unless noted, calls come from the whole dose curve; as a rule, active means well fitted rising curve with a large enough effect; inconclusive means small, poorly fitted or top-dose-only effect; inactive means no such curve, though single readings can be large or run the other way. Potency is the fitted concentration of half-maximal effect.

Order of results – Cruzain noTriton, RE007 growth inh, Cruzain Triton, NS1 function inh, LASV entry inh, Marburg entry inh, 2A StopGo, SARS PLP yeast
COC(=O)COc1ccc(C2NC(=O)NC(C)=C2C(=O)NCc2ccccc2)cc1OC (configuration not stated)
→ x, 4%, x, x, 1%, 6%[46.1 µM], -8%, 0%
CN1CCN(C(=O)c2ccc(-n3cccn3)nc2)CC1
→ x, -7%, x, x, 5%, -2%[46.1 µM], 12%, 2%
Cc1nnc(NC(=O)c2ccc(N3CCCC3=O)cc2)s1
→ x, 18%, x, x, 6%, 28%, 84%[activator], 0%
C(CCCN1CCCCC1)CCN1CCCCC1
→ x, -7%, x, x, -12%, -25%, -5%, x
CCC(=O)Oc1cc(C(C)(C)C)cc2cc(-c3nc(-c4ccc(OC)cc4OC)no3)c(=O)oc12
→ 43%, x, 4.3%, x, 15%[46.1 µM], x, u, x
O=C(C1=C(O)C(=O)N(CCN2CCOCC2)C1c1cccc([N+](=O)[O-])c1)c1cccs1 (configuration not stated)
→ x, 8%, x, 3%, u, -25%[46.1 µM], 37%[activator], 0%
CCOC(=O)c1c(C)[nH]c(C(=O)COC(=O)c2[nH]c(C)c(C(C)=O)c2C)c1C
→ u, -8%, -1.0%, 4%, 6%, -31%, u, -2%
CC(CN1CCCCC1)OC(=O)COc1ccc(Br)cc1 (configuration not stated)
→ x, 3%, x, 7%, x, x, -20%, 1%
O=C(CCC1CCCN(Cc2ccc3c(c2)CCO3)C1)NCc1ccc(F)c(F)c1 (configuration not stated)
→ x, -19%, x, 1%, x, x, -10%, 0%
CCCCN(CC)CCNC(=O)Cn1cnc2sc(C)c(S(=O)(=O)N3CCOCC3)c2c1=O
→ 5%, 15%, -0.7%, -5%, 7%, 7%&7%, -13%, -14%
C=CCNC(=O)C1CC(=O)N(c2ccc(OCC(=O)N3CCCC3)cc2)C1 (configuration not stated)
→ x, 17%, x, 1%, 3%, u, -2%, 2%
COc1ccc(/C=N/NC(=O)c2cc(OC)c(OC)c(OC)c2)cc1CN1CCc2cc(OC)c(OC)cc2C1C (configuration not stated)
→ x, -14%, x, x, -20%, 14µM*, -8%, -2%
CCOc1cc2[nH]c(=S)n(Cc3ccc(C(=O)O)cc3)c(=O)c2cc1OCC
→ x, 0%, x, 6%, x, x, 11%, 5%
Cc1ccccc1NC(=O)Cn1nnc2ccccc21
→ x, 10%, x, x, 7%, -4%[46.1 µM], 31%[activator], -1%
CCOCCCNC(=O)c1cc2c(-c3ccc(OC)c(OC)c3)nn(C)c2s1
→ u, x, -8.3%, x, -29%[46.1 µM], -28%[46.1 µM], -13%, x
CCOC(=O)Nc1cc(NC(=O)OCC)ncn1
→ x, 11%, x, x, 9%[46.1 µM], 19%, -14%, x
O=C(NCc1ccco1)C1(c2ccc(Br)cc2)CCCC1
→ -11%, 12%, -3.3%, -51%, 7%, -18%, -10%, 8%
CC(NS(=O)(=O)c1ccc2c(c1)C(C)(C)C(=O)N2C)c1ccccc1 (configuration not stated)
→ x, -9%, x, 6%, x, x, 25%, 0%
Cc1ccc(S(=O)(=O)Nc2ccnc3ccccc23)cc1
→ 3%, 8%, 3.0%, -2%, -9%, 11%, 18%, 0%
Cc1ccc(S(=O)(=O)NCCSc2ncccn2)cc1
→ x, 0%, x, -2%, x, x, 8%, -1%

Four compounds from above with just NS1 function inh and Cruzain noTriton:
SMILES,NS1 function inh,Cruzain noTriton
O=C(C1=C(O)C(=O)N(CCN2CCOCC2)C1c1cccc([N+](=O)[O-])c1)c1cccs1 (configuration not stated),3%,x
CCOC(=O)c1c(C)[nH]c(C(=O)COC(=O)c2[nH]c(C)c(C(C)=O)c2C)c1C,4%,u
CC(CN1CCCCC1)OC(=O)COc1ccc(Br)cc1 (configuration not stated),7%,x
O=C(CCC1CCCN(Cc2ccc3c(c2)CCO3)C1)NCc1ccc(F)c(F)c1 (configuration not stated),1%,x

(list continues)
Order of results – Cruzain noTriton, RE007 growth inh, Cruzain Triton, NS1 function inh, LASV entry inh, Marburg entry inh, 2A StopGo, SARS PLP yeast
Cc1cc(OC(=O)c2ccc(Cl)cc2Cl)c([N+](=O)[O-])c(=O)[nH]1
→ x, 8%, x, -15%, x, x, -17%, 0%
C/C(=N\NC(=O)c1c(Cl)cnn1C)c1cccc(NC(=O)c2ccc(C)cc2)c1
→ x, -8%, x, -13%, x, x, 2%, -2%
Cc1ccc(C2=NS(=O)(=O)N(C)C(C(=O)Nc3cc(C)n(CC(=O)N4CCCCC4)n3)=C2)cc1
→ x, 5%, x, 10%, 16%[46.1 µM], 2%[46.1 µM], -19%, -3%
CSc1nc(NS(=O)(=O)c2cc(Br)ccc2Br)cc(=O)[nH]1
→ x, 17%, x, 12%, -2%[46.1 µM], 2%[46.1 µM], -14%, 0%
COc1ccc(Cl)cc1S(=O)(=O)N1CCN=C1Cc1ccccc1
→ x, 0%, x, 18%, 3%, u, 2%, u
COc1ccccc1N1CCN(C(=O)c2nc(-c3ccc(C)cc3)n3c2CCCCC3)CC1
→ u, x, -4.4%, x, x, x, -20%, x
CCCCCC1CC(CC(=O)Nc2nncs2)C(=O)O1 (configuration not stated)
→ 5%, 0%, 0.1%, 16%, 5%, -2%, -24%, 24%
CC(C)(C)C(=O)O[C@H]1CC[C@@]2(C)C(=CC(=O)C3C2CC[C@]2(C)C(=O)CCC32)C1 (some centres not stated)
→ x, 2%, x, x, u, 13%[46.1 µM], -17%, 6%
O=C(Cn1ncc2c3ccccc3n(Cc3ccccc3F)c2c1=O)NCC1CCCO1 (configuration not stated)
→ x, 11%, x, 6%, x, x, -15%, 2%
COC(=O)c1ccc(NC(=O)COc2coc(CN3CCc4ccccc43)cc2=O)cc1
→ x, 5%, x, x, 0%, -21%, -23%, -1%
CN(CC(=O)Nc1cccc(F)c1)C(=O)c1ccc(N2CCCCC2)c([N+](=O)[O-])c1
→ x, 5%, x, x, -2%, u, -6%, -18%
O=C(O)C(Cc1c[nH]c2ccccc12)N1CCS(=O)(=O)CC1 (configuration not stated)
→ x, 22%, x, 5%, 2%, -12%[46.1 µM], -4%, 0%
COc1ccc(N2C(=O)CC(S/C(N)=N/N=C/c3ccnc4ccccc34)C2=O)cc1 (configuration not stated)
→ 10µM*, x, 25µM*, 21%, -9%, 8%, x, u
S=c1[nH]nc(C2CCCCC2)n1/N=C/c1ccc(Br)s1
→ -6%, -5%, -3.8%, 4%, u, -33%, -20%, -1%
Cc1ccc(NC(=O)COc2ccccc2)cc1Cl
→ x, -7%, x, -51%, 18%[46.1 µM], u, 31%[activator], -7%
Cc1ccc(-c2nc(COC(=O)c3c(C)noc3C)cs2)cc1
→ 5%, 1%, -1.4%, -9%, u, 11%, 3%, -2%
CC1CCCC(NC(=O)COC(=O)c2sc3ccccc3c2Cl)C1C (configuration not stated)
→ -21%, 2%, -2.4%, -3%, 26%, u, -5%, 4%
CSc1nc(NCCOC(C)=O)c(C#N)c(-c2ccc(C(C)(C)C)cc2)n1
→ u, x, -1.6%, x, 4%[46.1 µM], u, u, x
Nc1nnc(SCC(=O)NC2CCCCC2)n1-c1ccccc1
→ -6%, 4%, -0.5%, 8%, 1%, u, -10%, 3%
O=C(COc1ccccc1)NCc1ccc2c(c1)OCO2
→ -12%, 9%, -1.9%, -9%, -20%, 11%, x, 6%
CCn1cc(CN2CCCC(C(=O)Nc3ccc(-c4nc5ccccc5[nH]4)cc3)C2)c(C)n1 (configuration not stated)
→ x, 3%, x, 3%, -9%[46.1 µM], u, 5%, 13%
COCCn1c(=NC(C)=O)sc2cc([N+](=O)[O-])ccc21
→ 13%, u, -1.0%, 30%, 2%, 12%, -16%, 1%
Cc1ccc(NC(=O)C2(c3ccccc3)CCCC2)nc1
→ x, -17%, x, x, 5%, u, -19%, x
COc1ccc(S(=O)(=O)Cc2ccc(C(=O)NC3CC3)o2)cc1
→ 5%, 10%, 3.0%, -5%, x, x, -1%, -2%
COc1cc(/C=N/NC(=O)Cc2ccc(Br)cc2)cc(OC)c1O
→ x, -13%, x, 2%, x, -10%[46.1 µM], -11%, 1%
Cc1ccc2c(c1)C1CN(C)CCC1N2C(=O)Nc1ccc(Cl)cc1 (configuration not stated)
→ 5%, -4%, 3.2%, -22%, u, u, x, -8%
O=S(=O)(c1ccc2ccccc2c1)N(CC1CO1)c1ccccc1 (configuration not stated)
→ x, 10%, x, -10%, -29%[46.1 µM], u, 1%, 0%
CCOC(=O)N1CCC(NC(=O)CN2C(=O)CSc3ncccc32)CC1
→ -7%, -1%, 2.8%, 0%, x, x, -14%, 11%
CC(NC(=O)c1cccnc1)c1ccc2c(c1)OCO2 (configuration not stated)
→ -1%, -1%, 1.9%, -8%, -23%, u, 4%, 3%
CCCc1cc(C(N)=O)c(NC(=O)c2ccco2)s1
→ -6%, 5%, -3.9%, 3%, -1%, -3%, 48%[activator], -2%
O=C(CCn1nnc2ccccc21)Nc1nnc(-c2ccccc2F)s1
→ -16%, -10%, -0.3%, 5%, -11%, 1%, 0%, 9%
CCn1c(/C=C2\C(=O)N(C)c3ccccc32)nc2ccccc2c1=O
→ u, -12%, -6.7%, -21%, u, -13%, -15%, 0%
CC(C)CCC1(C)NC(=O)N(CC(=O)c2ccc[nH]2)C1=O (configuration not stated)
→ x, 3%, x, x, 0%, 15%[46.1 µM], -23%, -8%
O=C1CC(N2CCC(O)(c3ccc(Cl)cc3)CC2)C(=O)N1Cc1ccc(N2CCCC2=O)cc1 (configuration not stated)
→ u, -21%, -1.0%, -43%, 1%, 1%, u, 0%
CN(C)c1nc(NNC(=O)c2ccccc2)nc(N(C)C)n1
→ x, 13%, x, x, 3%[46.1 µM], 14%, -10%, x

Bioassay records from PubChem BioAssay.

Hits appear at their usual frequency; any-hit rate near 4.7%.
